VDR inhibitor – Inhibitors of the vitamin D receptor (VDR): qHTS; Vitamin D3 receptor (Homo sapiens), P11473; VDR-SRC2-3 peptide fluorescence polarization, 2 h; Potency, µM, inactives show max response, negative = inhibition, hits mostly inhibitors; 0.93% of 400,000 active; active = well fitted inhibition curve with a large enough effect; inconclusive = small, poorly fitted or top-dose-only effect, or another doubt; inactive = no such curve, though single readings can be large or run the other way; also: series mostly up to about 120 µM
Target sequence (P11473 whole entry, looked up): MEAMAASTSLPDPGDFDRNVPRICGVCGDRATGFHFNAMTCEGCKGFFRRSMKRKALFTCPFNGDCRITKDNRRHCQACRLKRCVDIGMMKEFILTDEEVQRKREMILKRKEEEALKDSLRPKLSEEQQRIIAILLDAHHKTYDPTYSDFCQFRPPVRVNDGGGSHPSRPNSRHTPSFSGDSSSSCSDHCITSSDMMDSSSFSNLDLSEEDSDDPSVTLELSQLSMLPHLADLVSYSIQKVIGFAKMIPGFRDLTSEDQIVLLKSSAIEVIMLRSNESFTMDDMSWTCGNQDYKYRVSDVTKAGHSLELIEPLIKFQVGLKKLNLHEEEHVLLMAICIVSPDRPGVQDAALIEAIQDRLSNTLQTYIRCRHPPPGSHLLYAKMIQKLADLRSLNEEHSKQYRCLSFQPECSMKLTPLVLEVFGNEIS
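FP read-out; VDR + SRC2-3 coactivator peptide; 23 nl compound by pintool; 2 h RT incubation; reagents held at 4 deg C, protected from light.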
* = called active by the depositor; ? = inconclusive; & = joins results of further samples. % is scaled to controls: 0 for no effect and ±100 for the full control effect; potency is read from the fitted curve at half-maximal effect. These rows are one share of the data; the hit share may differ from the screen's.

SMILES	VDR inhibitor
COc1ccccc1NC(=O)Cn1c(CCC(=O)O)ccc1-c1ccccc1	0.1%
CCN1CCN(Cc2nc3cc(NC(=O)COc4ccc([N+](=O)[O-])cc4)ccc3n2C)CC1	-14.0%
O=C1c2[nH]nc(-c3ccccc3O)c2C(c2ccc(F)cc2)N1Cc1ccco1 (centres undefined)	-18.4%
CCOc1ccccc1N1CCN(C(=O)Cc2ccc(S(=O)(=O)N3CCOCC3)s2)CC1	-12.6%
COc1cc(C2c3c(oc4ccc(F)cc4c3=O)C(=O)N2c2nc(C)c(C)s2)cc(OC)c1OC (centres undefined)	12.2%
Cc1c(CCC(=O)NCCCCCC(=O)O)c(=O)oc2c(C)c3oc4c(c3cc12)CCCC4	-18.3%
COc1ccc(NC(=O)NNC(=O)COc2ccc([N+](=O)[O-])c(C)c2)cc1OC	-10.0%
Cc1cccc2cccnc12	13.8%
COc1ccccc1/C=C/C=N/NC(=O)c1cc(-c2ccco2)[nH]n1	14.1%
COc1cccc(C(=O)NCC(=O)OC(C)C(=O)NC23CC4CC(CC(C4)C2)C3)c1 (centres undefined)	-3.6%
CC1CCN(S(=O)(=O)c2ccc3c(c2)CCN3C(=O)C2CCC2)CC1	-15.6%
CCOc1ccccc1N(CC(=O)N1CCC(C)CC1)S(=O)(=O)c1ccc(C)cc1	-10.9%
C=C(C)CNC(=O)c1ccc(OC2CCN(C(=O)COC)CC2)cc1	0.0%
CCCCn1c(N)c(N(CCOC)C(=O)c2ccc(F)c(S(=O)(=O)N3CCOCC3)c2)c(=O)[nH]c1=O	-6.9%
CCC(C)NS(=O)(=O)c1ccc(OCC(=O)Nc2ccc3c(c2)OCCO3)cc1 (centres undefined)	4.8%
Cn1c(CN2CCCCC2)nc2cc(NC(=O)c3cccc(Br)c3)ccc21	11.4%&8.8%
Cc1ccc(C(=O)OCC(=O)N2CCCCCC2)c(O)c1	-22.4%
Cc1cccc(N(CC(=O)Nc2ccc(CC#N)cc2)S(C)(=O)=O)c1	-4.2%
Cc1ccc(O)c(CNc2nccs2)c1	18.7%
O=C(NCCCn1ccnc1)c1c(F)cccc1F	7.4%
CC(C)N(C(=O)[C@H]1CC(CC(=O)NCc2ccco2)C(=O)N2CCc3c([nH]c4ccccc34)[C@]12C)C(C)C (some centres undefined)	2.0%
Cc1nccn1CCCN1C(=O)OC2(CCCCC2)C1(C)O (centres undefined)	-4.9%
CC(=O)Oc1ccc2nc(-c3ccco3)oc(=O)c2c1	?
Cn1nnc(NC(=O)c2ccc([N+](=O)[O-])cc2Cl)n1	-4.6%
c1ccc(-c2nnc(CSc3nncs3)o2)cc1	-3.0%
Cc1c(-c2ccccc2)c(=O)oc2cc(O)ccc12	-7.8%
CCOCCCN1C(=O)c2ccccc2CC1(C)C(=O)NC1CCCCC1 (centres undefined)	8.6%
CC(C)(C)c1ccc(NC(=O)C2=CN3CCS(=O)(=O)N=C3C=C2)cc1	23.8%
CC1=CC(C)(C)Nc2ccc(C)cc21	15.4%
COC(=O)[C@@]12CCCCN1[C@H](c1ccc(-c3cccc(Cl)c3)c(OC)c1)[C@H]1C(=O)N(C)C(=O)[C@H]12	-1.0%
CCc1ccc2c(CC(=O)Nc3nnc(C4CC4)s3)coc2c1	-19.5%
O=C(NCc1nc2ccccc2[nH]1)C1=C[C@H](c2ccc(C(F)(F)F)cc2)C[C@H](OCc2ccc(CO)cc2)O1	-2.1%
COc1cccc(NC(=O)CCc2ccccc2)c1	-12.9%
COc1ccc(C(=O)N2CCN(c3ccc(NC(=O)c4cccs4)cc3)CC2)cc1	0.6%
CCOc1cc(C(=O)OCC(=O)NC(C)c2ccccc2)ccc1OCC(=O)N1CCOCC1 (centres undefined)	-4.0%
CCCN(CCC)CCCNC(=O)c1cc2cc3ccc(Cl)cc3nc2o1	-13.8%
CCCCN(C)C1=Nc2cccc3cccc1c23	12.3%
O=C1CSC(=S)N1c1cccc(Cl)c1	21.6%
O=C(NC12CC3CC(CC(C3)C1)C2)c1cc([N+](=O)[O-])ccc1N1CCOCC1	-5.0%
CSCCC(NC(=O)c1ccc(Cl)cc1Cl)C(=O)NCC(c1cccs1)N(C)C (centres undefined)	-7.1%
Cc1c(Cl)c([N+](=O)[O-])nn1CCCC(=O)N(Cc1ccccc1)Cc1ccccc1	-28.5%
COc1nc(N(CC(N)=O)S(=O)(=O)c2ccccc2)nc(C)c1Cl	-0.4%
COc1ccc(NC2c3ccccc3C(=O)N2Cc2ccccc2Cl)cc1OC (centres undefined)	-24.6%
CN(Cc1nccs1)C(=O)C1CCC(=O)N(CCc2cccc(F)c2)C1 (centres undefined)	-21.9%
O=C(Nc1ccccc1NC(=O)c1ccco1)c1ccccc1	11.1%
O=C(O)/C=C/c1cn(-c2ccccc2)nc1-c1cccs1	-32.6%
O=C1/C(=C/c2ccc3c(c2)OCO3)Oc2cc(OCC(=O)N3CCC[C@H]3C(=O)O)ccc21	-23.8%
O=C(CCSCc1ccccc1F)NCc1cccs1	-3.4%
Cc1ccc(S(=O)(=O)Nc2ccc3c(c2)OCCO3)cc1	2.9%
COc1ccccc1-c1cc(C(=O)NC2CCN(C)CC2)c2ccc(Cl)c(C)c2n1	12.4%
(list continues)
SMILES	VDR inhibitor
Cc1ccc(OCC(O)CN2CCN(Cc3ccc4c(c3)OCO4)CC2)cc1C (centres undefined)	-5.7%
C[C@H](CO)N1C[C@H](C)[C@@H](CN(C)Cc2ccc3c(c2)OCO3)Oc2c(NC(=O)Cc3ccccc3)cccc2C1=O	-20.5%
Brc1cccc(OCCCCn2cncn2)c1	-5.2%
COC(=O)COc1ccc(S(=O)(=O)N2CCc3ccccc3C2)cc1	-4.5%
COc1ccccc1C(CC(=O)Nc1ccc(C)c(C)c1)c1ccc(OC(C)C)cc1 (centres undefined)	-7.8%
Cc1nc2ncnn2c(Nc2ccc3c(c2)OCCO3)c1C	-5.2%
COc1ccccc1N1CCN(C2CCCN(C(=O)c3ccccn3)C2)CC1 (centres undefined)	-16.3%
Cn1c(=O)c2c(n(C)c1=O)=NC1(CCCCC1)ON=2	-9.7%
CCN1C(=O)[C@@H]2[C@H](C1=O)[C@@H]1C(=O)Nc3ccccc3C(=O)N1[C@@H]2c1ccc(Br)cc1	-8.4%
CCOc1ccc(OCC)c(NC(=O)c2cnn(-c3ccc(F)cc3)c2C2CCN(C(=O)OC(C)(C)C)CC2)c1	-6.6%
COc1cc(-c2cc(C(=O)N(C)Cc3ccccc3)c3ccccc3n2)cc(OC)c1OC	-11.0%
CCOc1nc(SC(C(C)=O)C(=O)Nc2ccccc2)nc(N(C)C)n1 (centres undefined)	13.1%
O=S(=O)(NCC1CCCO1)c1ccccc1 (centres undefined)	-15.3%
O=C1OC(c2ccccc2)=N/C1=C\C=C\c1ccco1	-14.4%
Cc1ccc(C(=O)N2c3ccccc3NC(=O)C2C)cc1 (centres undefined)	-16.8%
CC(=O)CN1C(=O)NC2(CCCc3ccccc32)C1=O (centres undefined)	-0.3%
Cc1nnc(Sc2cc(C(=O)NCc3ccco3)c3ccccc3n2)s1	-0.4%
CC1CCN(c2nc3ccccc3nc2C(F)(F)F)CC1	15.5%
Cn1c(-c2ccc(F)cc2)cnc1SCC(=O)Nc1ccccc1	6.6%
COC(=O)c1ccc(CSc2nnc(NC(=O)C3CC(=O)N(Cc4ccc(C)cc4)C3)s2)cc1 (centres undefined)	-20.3%
COc1ccc(C(CC(=O)O)NC(=O)OC(C)(C)C)cc1 (centres undefined)	-1.5%
Cc1[nH]n(-c2ccccc2)c(=O)c1N=Nc1ccccc1O	-8.3%
Cc1cccc(NS(=O)(=O)c2ccc(NC(=O)N3CCCC3)cc2)c1	-0.8%
Cc1cc(C)[n+](Cc2ccccc2)cc1C(N)=O	-15.3%
Cc1ccc(NC(=O)c2cc(C)nn2-c2ccccc2)cc1	-27.8%&-1.1%
Cc1ccccc1OC(=O)CSc1nnc(-c2ccc(F)cc2)o1	3.9%
COc1cccc(/C=N/NC(=O)CC2C(=O)NN=C2C)c1OC (centres undefined)	-1.5%
Cc1ccc(C(=O)Nc2sc3c(c2C(=O)O)CCCC3)o1	-26.5%
CN(C)c1cc(-c2ccc(F)cc2)oc(=O)c1Cl	-0.9%
Cc1ccc(S(=O)(=O)Cc2ccc([N+](=O)[O-])cc2)cc1	-17.4%
COc1cc2c(cc1OC)C(COc1ccccc1OC)N(C(=O)c1ccc(S(=O)(=O)N3CCCC3)cc1)CC2 (centres undefined)	2.2%
COc1ccc(-c2nnc(C3CCN(S(=O)(=O)c4cccc(Cl)c4)CC3)o2)cc1	-18.9%
CC(C)(C)OC(=O)N1CCC(c2c(C(=O)Nc3cccc(C(F)(F)F)c3)cnn2-c2ccc(F)cc2F)CC1	3.1%
COc1cccc(CN2CCN(C(=O)CCc3nnc(C4CCCCC4)o3)CC2=O)c1	?
Cc1onc(-c2ccccc2Cl)c1C(=O)Nc1ccccc1C(=O)NC(C)C	-6.3%
Cc1cccc(NS(=O)(=O)c2ccc(-c3cnc(C4CC4)o3)cc2)c1	-23.9%
COC(=O)c1ccc(N2C(=O)CC(N3CCN(c4ccccc4)CC3)C2=O)cc1 (centres undefined)	2.5%
Cc1cc(C)n2nc(SCCCC(=O)c3ccccc3)nc2n1	4.3%
COc1cccc(/C=C/c2onc(C)c2S(=O)(=O)N2CCC(C(=O)NC3CCCCCC3)CC2)c1	0.7%
O=C1NC(=O)C2(C=C(c3ccccc3)C(O)(c3ccccc3)C2)N1 (centres undefined)	5.8%
COc1ccc2cc3cc(C(=O)NCC4COc5ccccc5O4)oc3nc2c1 (centres undefined)	25.8%
CC(/C=C1\SC(=S)N(NS(=O)(=O)c2ccccc2)C1=O)=C\c1ccccc1	?
C[C@@H]1CN([C@@H](C)CO)C(=O)c2cc(NC(=O)C3CC3)ccc2O[C@@H]1CN(C)C(=O)NC1CCCCC1	10.0%
O=C(N/N=C\c1ccc(-c2ccc([N+](=O)[O-])cc2)o1)C1COc2ccccc2O1 (centres undefined)	-8.5%
COc1ccc(NCN2C(=O)C3C4C=CC(C4)C3C2=O)cc1 (centres undefined)	10.1%
O=C(O)C1CCCN1C(=O)c1cccs1 (centres undefined)	-5.2%
CCN(CC(=O)NCc1ccncc1)S(=O)(=O)c1ccccc1	4.3%
[O-]/[N+](=C/c1ccco1)c1ccccc1	11.3%
Cc1ccc(-n2c(CCc3nc4ccccc4[nH]3)n[nH]c2=S)cc1	-21.4%
COc1cc(OC)cc(C(=O)Nc2nc(-c3nnn(-c4ccc(C)cc4)c3C)ns2)c1	-6.2%

A stretch from the list above:
SMILES	VDR inhibitor
COc1ccc2cc3cc(C(=O)NCC4COc5ccccc5O4)oc3nc2c1 (centres undefined)	25.8%
CC(/C=C1\SC(=S)N(NS(=O)(=O)c2ccccc2)C1=O)=C\c1ccccc1	?
C[C@@H]1CN([C@@H](C)CO)C(=O)c2cc(NC(=O)C3CC3)ccc2O[C@@H]1CN(C)C(=O)NC1CCCCC1	10.0%

More compounds:
SMILES	VDR inhibitor
O=C(CN1CCC(n2nnc3cc(C(F)(F)F)ccc32)CC1)NNC(=O)c1ccco1	-8.9%
COc1ccc(-c2cnc(N)n2CC2CCCO2)cc1 (centres undefined)	7.5%
CC(C)C[C@@H](CNCC(=O)[C@H](CC(=O)O)NC(=O)c1[nH]cnc1C(=O)N[C@H](CN)CC(C)C)NC(=O)c1nc[nH]c1C(=O)N[C@@H](Cc1ccccc1)C(=O)O	-26.6%
O=C(Nc1ccccc1)OCCNC(=O)c1cccc(Br)c1	-5.3%
COc1cc(OC)c(NC(=O)Cn2nc(C)n3cccc3c2=O)cc1Cl	9.7%
COC1C(CO)OC(n2cnc3c(=S)nc(N)[nH]c32)C1O (centres undefined)	-23.4%
O=C(Nc1cccs1)Nc1cc(C(F)(F)F)ccc1Cl	-3.6%
CCN(CC)C(=O)Cn1c(=O)cc(C)c2c(C)nn(C)c21	12.6%
COc1ccc(-c2cc(C#N)nc(N3CCNCC3)n2)cc1	-10.4%
CCOc1ccc(NC(=O)COC(=O)CSCC(=O)Nc2ccc(C)cc2C)cc1	-3.9%
C=CC(COCc1ccccc1)N(Cc1ccccc1)S(=O)(=O)c1ccccc1Br (centres undefined)	-13.0%&-13.9%
O=C(CN1C(=O)COc2ccc(S(=O)(=O)N3CCOCC3)cc21)Nc1ccc(F)c(Cl)c1	-2.6%
O=C(O)CCCCCN=Cc1c(O)c2ccccc2oc1=O	-11.0%
COc1ccc(C(=O)OCC(=O)N2CCOCC2)cc1S(=O)(=O)N1CCOCC1	5.2%
COc1cccc(NC(=O)c2ccc(-c3nc(COc4ccccc4)c(C)o3)cc2)c1	13.7%
O=C(N/N=C/c1ccccc1Cl)c1cccc(F)c1	6.7%
Cc1cc(C)cc(NC(=O)CCNS(=O)(=O)c2cc(Br)cnc2N)c1	1.9%
NNC(=O)C1=NOC(CNc2ncc(C(F)(F)F)cc2Cl)C1 (centres undefined)	5.6%
COc1ccc(CNC(=O)Cc2c(C)c3c(cc(C)c4c(C)c(C)oc43)oc2=O)cc1	7.2%
COc1ccc2[nH]c(C(=O)O)c(NS(=O)(=O)c3ccc(OC)c(OC)c3)c2c1	-1.9%
O=C(CCCCCNc1nc(=S)[nH]c2ccccc12)NCCc1ccc(Cl)cc1	-9.9%

Given field by field: part of the list above
> Cc1cc(C)cc(NC(=O)CCNS(=O)(=O)c2cc(Br)cnc2N)c1
  VDR inhibitor: 1.9%

> O=C(N/N=C/c1ccccc1Cl)c1cccc(F)c1
  VDR inhibitor: 6.7%

> O=C(CN1C(=O)COc2ccc(S(=O)(=O)N3CCOCC3)cc21)Nc1ccc(F)c(Cl)c1
  VDR inhibitor: -2.6%

> COc1cccc(NC(=O)c2ccc(-c3nc(COc4ccccc4)c(C)o3)cc2)c1
  VDR inhibitor: 13.7%

Assay outcomes (PubChem)
